# High-throughput results from PubChem.
# HCMV UL50-53 inh – disrupts HCMV UL50-UL53 complex binding; inhibition, % (test concentration not listed); AID 1918969; HTRF UL50-UL53 interaction, normalized percent inhibition; 190,000 tested, 0.15% active;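 active = both replicates at 50% or more, plus weaker picks with an unusually low signal ratio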;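 also: stock transfer was 100 nL into about 20 µL; 0% = negative control wells and 100% = wells with untagged competitor protein; inactives centre near -12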
# Sa growth inh – inhibitors of Staphylococcus aureus growth at 42 °C; 170,000 tested, 0.53% active; relative growth, % (no concentration beside the values); S. aureus RN4220 growth, OD600, 20 h; stronger effect = lower value; AID 720641;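 active = growth at 42 °C up to 50% and 20 or more points under that at 30 °C, or under 10% at both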;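 also: 300 nL library stock went into each well; scaled to the means of positive and negative controls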
# GIV Gai3 FP – inhibitors of GIV GBA-motif binding to rat Galpha-i3. AID 1224905. 210,000 tested, 0.42% active. percent of control (FP), % (no concentration beside the values). Galpha-i3/FITC-GIV peptide fluorescence polarization, 90 min; stronger effect = lower value; scaled: aluminum fluoride 0%, vehicle 100%. P08753;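 active = replicate mean at 85% of control or lower, very high polarization wells dropped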;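 also: wells of about 15 µL received 100 nL stock; the first replicate is given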
# Target sequence (P08753 whole entry, looked up): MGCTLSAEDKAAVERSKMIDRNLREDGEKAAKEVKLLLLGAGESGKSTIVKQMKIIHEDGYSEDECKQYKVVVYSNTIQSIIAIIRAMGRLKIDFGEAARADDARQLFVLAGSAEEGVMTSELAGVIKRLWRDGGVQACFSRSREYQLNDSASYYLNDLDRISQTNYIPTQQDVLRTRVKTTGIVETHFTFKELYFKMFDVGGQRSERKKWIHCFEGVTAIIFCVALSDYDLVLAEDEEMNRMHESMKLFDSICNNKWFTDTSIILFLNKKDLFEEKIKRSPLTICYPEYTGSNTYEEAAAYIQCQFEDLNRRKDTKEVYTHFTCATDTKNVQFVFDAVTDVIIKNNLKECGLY
# Sa growth inh second temp – second read-out of Sa growth inh, no call of its own (marks repeat the call); relative growth, %; measured here: growth at 30 °C;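 optical density after 20 h as mean of two plates; 100% = untreated growth and lower means inhibition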
# Active calls of the source: *; x = not tested or not shown; & = joins results of further samples.
# Every second line gives: Sa growth inh second temp	Sa growth inh	HCMV UL50-53 inh	GIV Gai3 FP
- CC(Nc1ccc(Cl)cc1)C(=O)N/N=C/c1cccc(O)c1 (configuration not stated)
    33	74	-50	98
- CCn1c(CN(C)C(C)=O)nc2ccccc21
    89	89	-7	100
- COc1ccccc1NC(=O)Cn1c(=O)n2nc(C)nc2c2ccccc21
    88	103	x	99
- FC(F)(F)c1ccccc1NCn1nnc2ccccc21
    93	101	-8	x
- COc1ccc2c(C)c(CC(=O)N3CCOCC3)c(=O)oc2c1
    85	87	-19	103
- COc1ccccc1NS(=O)(=O)c1ccc2oc(=S)n(CN(C)CCC#N)c2c1
    93	85	-22	x
- O=C(NCc1ccc(Cl)cc1)c1nn2c(c1Br)NC(c1cccs1)CC2C(F)(F)F (configuration not stated)
    x	x	5	95
- COc1ccc2c(CSc3nncn3-c3ccccc3OC)cc(=O)oc2c1
    90	95	-26	x
- S=c1oc2ccc(Cl)cc2n1CN1CCCC1
    73	67	2	x
- COc1cc2c(cc1OC)C(CC(C)C)=NCC2
    91	91	-25	113
- CNc1cc(C)nc2c(-c3ccc(F)cc3)c(C(F)(F)F)nn12
    x	x	-23	97
- O=S(=O)(c1ccc(Nc2cc(-c3ccccc3)ncn2)cc1)N1CCCC1
    x	x	-11	98
- COc1ccccc1C(=O)N(C)CCc1ccccn1
    94	103	-7	x
- COC(=O)c1cc2cccc3c2n1CCS3
    73	96	-13	116
- COc1ccccc1C(=O)Nc1nnc(S(=O)(=O)N(C)c2ccc(Cl)cc2)s1
    91	94	17	99
- COc1ccc(-c2nnc(SCC#N)n2C2CCCCC2)cc1OC
    88	96	-12	x
- Cc1ccc2nc(-c3cc4ccccc4oc3=N)[nH]c2c1
    61	101	-23	100
- O=C(Nc1cnn(CC(=O)N2CCOCC2)c1)c1cc(-c2ccc(F)cc2)no1
    x	x	-15	108
- CC12CN3CC(C)(CN(C1)C3c1ccc(O)cc1)C2 (configuration not stated)
    95	95	2	106
- Cc1cc(C)n(C(=O)CSc2nc(C)c(C)cc2C#N)n1
    91	101	-52	x

# More records
# Every second line gives: Sa growth inh second temp	Sa growth inh	HCMV UL50-53 inh	GIV Gai3 FP
- COCC(=O)N1CC(=O)Nc2ccccc21
    x	x	-6	95
- Cc1cc(NC(=O)CSc2ncc(C(=O)Nc3ccc(C)c(C)c3)c(=O)n2C)no1
    85	112	x	96
- Cc1ccc(Cl)cc1NC(=O)COCc1cc(-c2ccco2)on1
    98	71	x	102
- CCOc1ccc(-c2nc(CSc3nc(C(F)(F)F)cc(=O)[nH]3)c(C)o2)cc1
    x	x	-26	106
- c1ccc(-c2noc(-c3ccccn3)n2)cc1
    x	x	-7	94
- COc1ccccc1CNS(=O)(=O)c1ccc(-c2cc(C(F)(F)F)on2)s1
    71	111	x	103
- COC(=O)c1cc2c(s1)-c1cc(Cl)ccc1SC2
    87	93	x	103
- O=C1C2C3C=CC(C2C(=O)N1c1ccc(O)cc1)C1C2C(=O)N(c4ccc(O)cc4)C(=O)C2C31 (configuration not stated)
    x	x	-31	103
- CCC(C(=O)NCCc1ccc(SC)cc1)n1nc(C)c2c(C)n(-c3ccc(C)cc3)nc2c1=O (configuration not stated)
    79	85	x	103
- CC(NC(=O)Nc1ncccn1)(C(F)(F)F)C(F)(F)F
    84	113	x	99
- Cn1c(=S)[nH]c2cc(-c3ccccc3)sc2c1=O
    x	x	-31	101
- CCc1ccc(NC(=O)C2Cc3ccccc3C(=O)O2)cc1 (configuration not stated)
    93	84	-15	x
- Cc1c(C(=O)O)oc2c1-c1nn(Cc3cccc(Cl)c3)cc1CC2
    76	81	-22	104
- COC(=O)c1c(C)oc2ccc(OCc3ccccc3)cc12
    74	82	-36	x
- CCOC(=O)c1c(C)[nH]c(C(=O)N2CCC(C(C)C(=O)NCc3ccccc3C)CC2)c1C (configuration not stated)
    x	x	-8	109
- O=C(NC1CC1)C1CCCN(C(=O)NC2CCCCC2)C1 (configuration not stated)
    93	90	-22	104
- CN(C)c1nc2n(c(=O)n1)CCN2C(=S)S
    89	99	-8	101
- CN(CC(=O)N1CCc2ccccc2C1)S(=O)(=O)c1ccc2nc(-c3ccccc3)[nH]c2c1
    x	x	-58	104
- c1ccc2c(c1)NC(c1c[nH]c3ccccc13)N2
    78	99	-21	107
- O=C(NCc1cccnc1)c1cnn(-c2cccc(F)c2)c1C1CCNCC1
    96	97	-10	104

# Of the compounds above, these contain four or more nitrogen atoms.
# Every second line gives: Sa growth inh second temp	Sa growth inh	HCMV UL50-53 inh	GIV Gai3 FP
- COc1ccccc1NC(=O)Cn1c(=O)n2nc(C)nc2c2ccccc21
    88	103	x	99
- FC(F)(F)c1ccccc1NCn1nnc2ccccc21
    93	101	-8	x
- COc1ccccc1NS(=O)(=O)c1ccc2oc(=S)n(CN(C)CCC#N)c2c1
    93	85	-22	x
- O=C(NCc1ccc(Cl)cc1)c1nn2c(c1Br)NC(c1cccs1)CC2C(F)(F)F (configuration not stated)
    x	x	5	95
- CNc1cc(C)nc2c(-c3ccc(F)cc3)c(C(F)(F)F)nn12
    x	x	-23	97
- O=S(=O)(c1ccc(Nc2cc(-c3ccccc3)ncn2)cc1)N1CCCC1
    x	x	-11	98
- COc1ccccc1C(=O)Nc1nnc(S(=O)(=O)N(C)c2ccc(Cl)cc2)s1
    91	94	17	99
- COc1ccc(-c2nnc(SCC#N)n2C2CCCCC2)cc1OC
    88	96	-12	x
- O=C(Nc1cnn(CC(=O)N2CCOCC2)c1)c1cc(-c2ccc(F)cc2)no1
    x	x	-15	108
- Cc1cc(C)n(C(=O)CSc2nc(C)c(C)cc2C#N)n1
    91	101	-52	x
- Cc1cc(NC(=O)CSc2ncc(C(=O)Nc3ccc(C)c(C)c3)c(=O)n2C)no1
    85	112	x	96
- CCC(C(=O)NCCc1ccc(SC)cc1)n1nc(C)c2c(C)n(-c3ccc(C)cc3)nc2c1=O (configuration not stated)
    79	85	x	103
- CC(NC(=O)Nc1ncccn1)(C(F)(F)F)C(F)(F)F
    84	113	x	99
- CN(C)c1nc2n(c(=O)n1)CCN2C(=S)S
    89	99	-8	101
- CN(CC(=O)N1CCc2ccccc2C1)S(=O)(=O)c1ccc2nc(-c3ccccc3)[nH]c2c1
    x	x	-58	104
- O=C(NCc1cccnc1)c1cnn(-c2cccc(F)c2)c1C1CCNCC1
    96	97	-10	104

# Remaining list, next part:
# Every second line gives: Sa growth inh second temp	Sa growth inh	HCMV UL50-53 inh	GIV Gai3 FP
- COc1ccc(CC(=O)N(Cc2nc(-c3ccc(C)cc3)no2)C(C)C)cc1
    88	112	-25	99
- CS(=O)(=O)Cc1ccc(C(=O)N2CCCC2c2cccs2)cc1 (configuration not stated)
    83	96	-23	x
- O=C(c1cc(-c2cccnc2)n(-c2ccc(F)cc2)n1)N1CCC(N2CCCCC2)CC1
    x	x	-7	103
- CCOc1ccc(CCNC(=O)Cn2c(=O)c3cccn3c3ccc(F)cc32)cc1OCC
    98	118	-14	96
- O=C(O)C(F)(F)C12OC3C4C5CC(C6C5C3C61)C42 (configuration not stated)
    97	99	-25	100
- Cc1[nH]c(=S)c(C#N)c(C)c1CCC#N
    84	109	-44	101
- Cc1ccc(CCNC(=O)NCc2noc3ccc(C)cc23)cc1
    91	119	x	105
- CCCCNC(=O)C1CCN(c2cc(-c3ccc(F)cc3)ncn2)CC1
    x	x	-38	99
- COc1cc(C(C#N)N2CCCCCC2)ccc1O (configuration not stated)
    86	98	-64	104
- O=C(NCCc1nc2cccnc2n1-c1ccccc1)Nc1ccc2c(c1)OCCO2
    x	x	-12	100
- O=c1[nH]c(N2CCN(Cc3ccccc3)CC2)nc(O)c1Cc1ccccc1
    100	110	-34	109
- Clc1ccc(C=NCc2ccc(-c3cccs3)s2)cc1
    93	115	-37	109
- O=C(/C=C/c1ccc(S(=O)(=O)NCc2ccco2)cc1)NCC(F)(F)F
    86	76	-64	x
- O=S(=O)(/N=C(/c1ccccc1)N1CCCCC1)c1ccccc1
    82	81	-13	x
- CCN(CC)S(=O)(=O)c1ccc(C(=O)NCCSc2c(-c3ccc(C)cc3)[nH]c3ccccc23)cc1
    87	97	-19	106
- CCN(C(=O)c1cc2c(=O)oc3ccccc3c2s1)c1ccccc1F
    93	101	x	101
- CC(=O)Nc1nc(C)c(Oc2cccc(C(F)(F)F)c2)c(=O)[nH]1
    92	106	5	98
- O=C(CCCn1ncn2c(cc3occc32)c1=O)N1CCCCC1
    94	102	x	102
- O=C(NC1CCCC1)c1ccc2c(=O)n3c(nc2c1)CCCCC3
    81	96	0	109
- COC(=O)c1ccccc1NC(=O)C1=CC(c2ccc(C)cc2)=NS(=O)(=O)N1C
    99	124	-18&-28	102&102

# Additional compounds
# Every second line gives: Sa growth inh second temp	Sa growth inh	HCMV UL50-53 inh	GIV Gai3 FP
- CCCn1c(=O)c2ccccc2n2c(SCC(=O)NCc3ccc(C)cc3)nnc12
    x	x	-1	95
- O=C1c2ccccc2C(=O)c2oc(-c3ccc(F)cc3)nc21
    25	76	8	x
- CCn1cc(C(=O)OCC(=O)N(C)Cc2ccccc2)c(=O)c2ccc(C)nc21
    99	103	3	x
- c1cncc(-c2nnc3sc(-c4cc5ccccc5o4)nn23)c1
    x	x	-41	105
- COCCNc1ncnc2c1c(-c1ccccc1)cn2-c1cccc(Cl)c1
    48	64	x	106
- Cc1ccc(OCCSc2nc3ccc(NC(=O)COc4ccc(C)cc4)cc3s2)cc1
    93	96	-10	101
- CCn1c2ccc(F)cc2c2nc(C)sc21
    65	78	-33	99
- COC(=O)c1ccc(COc2ccc(/C=N/NC(N)=O)cc2)o1
    84	97	-38	x
- COCCOC(=O)C1=C(C)NC(=O)NC1c1cn(-c2ccccc2)nc1-c1ccc(OC)cc1 (configuration not stated)
    x	x	-23	113&101
- NC(=O)C1CCN(C(=O)CCc2nc3ccccc3n2-c2ccccc2)CC1
    100	89	-9	x
- CC(NC(=O)c1ccc(C(C)(C)C)cc1)C(=O)O (configuration not stated)
    88	131	x	101
- CNS(=O)(=O)c1ccc(C(F)(F)F)cc1S(=O)c1ccccc1C(=O)O (configuration not stated)
    89	87	-5	100
- N#CSCc1ccc(C#N)cc1
    65	105	4	109
- CCN(CC)c1ccc(-c2cc(C#N)on2)cc1
    94	115	-36	93
- CCOC(=O)c1cc(S(=O)(=O)NC(C)C)c(C)n1C
    x	x	-17	101
- CCCCS(=O)(=O)Nc1cccc(Cl)c1
    106	91	-20	103
- COc1ccc(NC(=O)Cn2nc(-c3ccncc3)ccc2=O)cc1Cl
    80	92	x	105
- COC(OC)(C(=O)c1ccccc1)c1ccccc1
    84	114	x	100
- CCN(c1ccccc1)S(=O)(=O)c1nnc(NC(=O)COc2ccccc2F)s1
    60	80	-12	101
- Cc1nn2c(=O)cc(COC(=O)c3ccc(NC(=O)c4ccc(C(C)(C)C)cc4)cc3)nc2s1
    92	77	x	99

# Some of the entries so far, with tabs:
smiles	Sa growth inh second temp	Sa growth inh	HCMV UL50-53 inh	GIV Gai3 FP
CCn1c2ccc(F)cc2c2nc(C)sc21	65	78	-33	99
O=C(/C=C/c1ccc(S(=O)(=O)NCc2ccco2)cc1)NCC(F)(F)F	86	76	-64	x

# (continued)
# Every second line gives: Sa growth inh second temp	Sa growth inh	HCMV UL50-53 inh	GIV Gai3 FP
- O=C(CSc1nc2ccccc2s1)c1ccc[nH]1
    90	97	-21	x
- Cc1ccc(CNC(=O)c2ccc(Cn3nc(C)c(Cl)c3C)o2)cc1
    73	101	x	105
- Cc1ccc(C)c(NC(=O)Cn2c(=O)n(Cc3nc(C)no3)c(=O)c3cc4c(cc32)OCO4)c1
    93	94	-4	104&104
- O=C1NC(Nc2nc3ccccc3s2)(C(F)(F)F)C(=O)N1C1CCCCC1 (configuration not stated)
    72	89	-4	99
- CCn1c(Cn2cccn2)nc2cc(NC(=O)CC(C)C)ccc21
    x	x	-14	98
- CCc1ccc(C(=O)c2cn(Cc3ccccc3)c3cc(OC)c(OC)cc3c2=O)cc1
    69	82	-10	95
- CC(=O)N1CCN(CC(=O)N2CCc3ccccc3C2)CC1
    92	88	19	x
- Fc1cnc(Nc2cccc(Br)c2)nc1Nc1cccc(Br)c1
    87	95	x	101
- Cc1ccc(C)c(N2CCN(S(=O)(=O)c3cc(C(=O)Nc4cc(Cl)cc(Cl)c4)ccc3F)CC2)c1
    88	101	x	102
- O=C(Nc1scc2c1c(=O)oc1ccccc12)c1cccs1
    84	97	31	100
